Bioassay records deposited in PubChem BioAssay by Emory University Molecular Libraries Screening Center.
Measles inh: inhibitors of measles virus growth in cells, primary screen, measles RdRp inhibitor project, cell-based, single point, HTS | z-score (concentration not given with the values) | 0.1% of 33,000 active | infected Vero cells, GFP fluorescence, 64 h; active compounds read low | AID 745, 2007;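 active = z-score under -3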;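 note: score is relative to mean and SD of the compound wells of a plate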
Active calls of the source: *.

SMILES	Measles inh
CCOc1cc(C2C3=C(CC(C)(C)CC3=O)NC3=C2C(=O)CC(C)(C)C3)ccc1OCc1ccc(C)cc1	-0.68
COCCCNC(=O)c1cnc(Nc2ccccc2OC)c2ccccc12	-1.4
CC(=O)c1ccc(NC(=O)CSc2nc3ccc(N=Cc4cc([N+](=O)[O-])ccc4O)cc3s2)cc1	0.41
CCOC(=O)c1cc([N+](=O)[O-])sc1NC(=O)c1ccc(Oc2ccccc2)cc1	0.17
CCOC(=O)c1c(NC(=O)c2cc(C)on2)sc2c1CCCC2	1.3
Cc1ccc(OCc2nc3ccccc3n2CCC(C)C)cc1	-0.5
CCOc1ccccc1C(=O)NC(Nc1sc(C)c(CC)c1C#N)(C(F)(F)F)C(F)(F)F	0.27
O=C(CSC1CC(=O)N(c2ccccc2F)C1=O)Nc1ccc2ccccc2c1 (stereo unspecified)	0.48
O=C1c2ccc([N+](=O)[O-])cc2C(=O)N1c1ccc(-c2nc3ccccc3[nH]2)cc1	-0.53
CCOC(=O)Cc1ccc(N(Cc2ccccc2)S(=O)(=O)c2cc(C)ccc2C)cc1	-0.02
COc1ccc(-c2nc3cc(C)ccn3c2NC(=O)c2ccc3ccccc3c2)cc1	-0.27
O=C(CCCn1c(=S)[nH]c2cc3c(cc2c1=O)OCO3)NCCc1ccccc1Cl	0.19
CCn1c(=N)c(C(N)=S)cc2c(=O)n3cccc(C)c3nc21	0.45
Cc1ccccc1N1C(=S)NC2c3cc(Br)ccc3OC1(C)C2C(=O)N(C)C (stereo unspecified)	5.2
O=C1CSC(c2cccnc2)N1c1ccc(F)cc1 (stereo unspecified)	-0.39
CC(C)C(C(=O)Nc1ccc(I)cc1)N1C(=O)c2ccccc2C1=O (stereo unspecified)	-1.6
O=C(O)CSc1cc(-c2ccccc2)nc(SCC(=O)O)n1	-0.1
COc1cc2[nH]c(=S)n(Cc3ccccc3)c(=O)c2cc1OC	-0.8
CCc1ccc(NC(=O)COc2ccc(C(C)C)cc2)cc1	-0.84
O=C(NCCn1ccc2ccccc21)c1cccs1	0.47
O=C1CN(C(=O)c2ccco2)C(c2ccc(F)cc2)c2cc(Cl)ccc2N1 (stereo unspecified)	-0.94
CCCCNC(=O)c1cc(S(=O)(=O)N2CCCC2)ccc1F	-1.3
Cc1ccc(Cn2c(=S)[nH]c3ccc(N4CCOCC4)cc3c2=O)cc1	-0.74
Cc1ccc(-n2cc(C(=O)N3CCC(C(N)=O)(N4CCCCC4)CC3)c3ccccc3c2=O)cc1C	-0.64
COCCOC(=O)C1=C(C)NC2=C(C(=O)CC(c3ccccc3)C2)C1c1cc2c(cc1Br)OCO2 (stereo unspecified)	-0.55

Four entries drawn at random from those above, as already listed:
SMILES	Measles inh
O=C(CCCn1c(=S)[nH]c2cc3c(cc2c1=O)OCO3)NCCc1ccccc1Cl	0.19
COc1ccc(-c2nc3cc(C)ccn3c2NC(=O)c2ccc3ccccc3c2)cc1	-0.27
CCOC(=O)c1cc([N+](=O)[O-])sc1NC(=O)c1ccc(Oc2ccccc2)cc1	0.17
CCOC(=O)Cc1ccc(N(Cc2ccccc2)S(=O)(=O)c2cc(C)ccc2C)cc1	-0.02

Carrying on.
SMILES	Measles inh
Cc1nnc(SCC(=O)n2c(C)c(C)c3ccccc32)s1	-0.17
O=C(CCCCCn1c(=S)[nH]c2ccsc2c1=O)N1CCCCC1	0.35
CCOc1cc2c(cc1OCC)C1C(C(=O)N3CCN(c4ccc([N+](=O)[O-])cc4)CC3)c3ccccc3C(=O)N1CC2 (stereo unspecified)	0.2
CC1CCN(S(=O)(=O)c2ccc(C(=O)NCCOc3ccccc3)cc2)CC1	-0.08
NCc1ccsc1	-1.1
CCCn1c(=S)[nH]c2cc(C(=O)N3CCCCC3CC)ccc2c1=O (stereo unspecified)	-0.51
CCc1ccc(N2CC(C(=O)Nc3cccc(O)c3)CC2=O)cc1 (stereo unspecified)	-0.5
CCOC(=O)c1c(C(C)(C)C)oc2ccc(OCC(=O)OC)cc12	-0.65
COc1cc(OC)cc(C(=O)N2CCN(C(=O)COc3ccc(C)cc3)CC2)c1	-0.29
O=c1c2ccccc2ncn1-c1cccc(Cl)c1	1.3
Cc1ccc(N(CCCN2C(=O)c3cccc4cccc(c34)C2=O)C(=O)c2ccccc2[N+](=O)[O-])cc1	0.14
CCCc1ccc(OCc2nnc(N)s2)cc1	0.15
Cc1c(Cl)cccc1NC(=O)CN1C(=O)c2ccccc2Sc2ccc(C(=O)N3CCCC3)cc21	-0.27
COc1ccc([N+](=O)[O-])cc1NC(=O)C1(S(=O)(=O)c2ccc(Cl)cc2)CC1	0.73
CCOc1ccc(NS(=O)(=O)c2ccc3[nH]cc(C(=O)NCc4ccccc4Cl)c(=O)c3c2)cc1	0.33
COc1ccc(NC(=O)c2cc3cccc(OC)c3oc2=O)c(OC)c1	1.2
COc1cc(C2Nc3ccccc3NC3=C2C(=O)CC(c2cccs2)C3)cc([N+](=O)[O-])c1O (stereo unspecified)	2.6
COc1ccc(CNC(=O)CN(c2ccc(C)c(Cl)c2)S(=O)(=O)c2ccccc2)cc1	-0.06
CCCOC(=O)C1=C(C)NC2=C(C(=O)CCC2)C1c1ccccc1OC(C)C (stereo unspecified)	-0.03
CCc1ccc(NC(=O)Cc2cn(C)c3ccccc23)cc1	0.05
Cn1cnc2c1c(=O)n(Cc1cccc(Cl)c1)c(=O)n2C	-1.4
CCOC(=O)C1=C(C)NC(=S)NC1c1ccc(OC(C)=O)c(OC)c1 (stereo unspecified)	-0.01
O=C(O)C1Cc2c([nH]c3ccccc23)CN1 (stereo unspecified)	0.25
COc1ccc(C(=O)Nc2cc3cc([N+](=O)[O-])ccc3oc2=O)cc1OC	0.07
Cc1ccc(S(=O)(=O)Nc2ccccc2CNc2c(C)cc(C)cc2C)cc1	-2.5
SMILES	Measles inh
O=C(CSc1nc2c(c(=O)n1-c1cccc(C(F)(F)F)c1)SCC2)Nc1ccccc1C(F)(F)F	-0.52
COCc1cc(C)nc(SCC(=O)Oc2ccccc2)c1C#N	0.15
O=C(C1=C(O)C(=O)N(CCc2ccccc2)C1c1ccccc1)c1cccs1 (stereo unspecified)	-0.54
CCOC(=O)c1cc2cccc(OC)c2oc1=O	-0.26
COCCn1c(=S)[nH]c2cc(C(=O)NCCC3=CCCCC3)ccc2c1=O	1.2
O=C(Cn1ncc2c(=O)oc3ccccc3c21)Nc1ccc(Oc2ccccc2)cc1	-1.1
CC1=C(C(N)=O)C(c2ccc(F)cc2)n2nc(SCc3ccccc3F)nc2N1 (stereo unspecified)	-0.72
CCOC(=O)C1=C(C)NC2=C(C(=O)CC(c3ccc(Cl)cc3)C2)C1c1ccc(N(CC)CC)cc1 (stereo unspecified)	-1.4
O=C1CSC(c2ccc(Cl)cc2)N1c1ccccc1F (stereo unspecified)	-0.13
COc1ccc(C(=S)N2CCOCC2)cc1OC(=O)c1ccc(C)cc1	0.54
CC12CC(NC(=O)N1c1ccc(C(=O)NCCc3ccccc3)cc1)c1ccccc1O2 (stereo unspecified)	-0.7
COC(=O)c1ccccc1NC(=O)c1ccc(N2CC3CC(C2)c2cccc(=O)n2C3)c(NC(=O)c2ccc(F)cc2)c1 (stereo unspecified)	-0.9
COC(=O)CSc1nsc(SCC(=O)OC)c1C#N	-0.05
O=C(CCCCCn1c(=S)[nH]c2cc3c(cc2c1=O)OCO3)N1CCN(C(=O)c2ccco2)CC1	-0.64
CC1=C(C(=O)OCCOc2ccccc2)C(c2cccc(O)c2)C2=C(CC(c3cccs3)CC2=O)N1 (stereo unspecified)	-0.16
Cc1n[nH]c(C)c1S(=O)(=O)N1CCC(C(=O)NCCC2=CCCCC2)CC1	-1.1
Nc1nc2ccc(C(=O)c3ccccc3)cc2[nH]1	-0.18
Cn1c(=NC(=O)c2ccc(Oc3ccccc3)cc2)sc2ccccc21	-0.48
Cc1nn(-c2ccccc2)c(Cl)c1C(=O)NC1CCCCC1	0.08
CCCCn1c(Oc2ccc(C(=O)OC)cc2)nc2c1c(=O)n(C)c(=O)n2C	1
COC(=O)c1sc2nc(-c3ccccc3)ccc2c1N	-0.1
Cc1cc(C(F)(F)F)nn1CC(N)=O	-0.19
CCN(CC)c1ccc2nc3c4ccccc4c(=O)cc-3oc2c1	-0.23
O=C(CSc1nccn1-c1ccc(Cl)cc1)NCCc1ccccc1	1.7
Cc1ccc(-c2c3c(=O)n(C)c(=O)n(C)c3cn2-c2ccccc2Cl)cc1	0.31
SMILES	Measles inh
Cc1cc(N2CCN(C)CC2)nc2ccc(NC(=O)c3cccc(C(F)(F)F)c3)cc12	0.66
COc1ccc(-c2nnc(NC(=O)c3ccc(C(C)(C)C)cc3)s2)cc1OC	1.3
COc1ccc(NS(=O)(=O)c2ccc3c(c2)CCN3C(C)=O)c(OC)c1	-0.77
O=c1[nH]c2ccccc2n1CCCSc1nc2ccccc2[nH]1	-1.4
Cc1ccc(NC(=O)C(c2ccccc2)N2CC(=O)Nc3ccccc32)cc1 (stereo unspecified)	-0.89
O=C(CSc1nc2ccsc2c(=O)n1Cc1ccc2c(c1)OCO2)c1cccc([N+](=O)[O-])c1	0.84
O=C(CSc1ccc(C(F)(F)F)cc1[N+](=O)[O-])Nc1ccccc1	0.72
COc1ccc(-c2cc3ccccc3n2CC(O)CNc2ccc(C(C)C)cc2)cc1 (stereo unspecified)	-0.29
Cc1ccc(NC(=O)c2cccc([N+](=O)[O-])c2)c(C(=O)c2ccccc2)c1	0.16
COc1ccc(C(=O)Oc2ccc(C=Nc3ccccc3Cl)cc2[N+](=O)[O-])cc1	-0.36
Cc1ccc(N2C(=O)c3ccc(C(=O)OCC(C)C)cc3C2=O)cc1Cl	-0.34
COc1ccc(-c2noc(COc3cc(C)cc(C)c3C)n2)cc1	-1.8
CC(C)CCNC(=O)C1CC(=O)N(C2CCCCC2)C1 (stereo unspecified)	0.07
COc1cc(NC(C)=O)ccc1NC(=O)c1ccco1	-0.79
COc1ccccc1C=Nc1ccc(S(=O)(=O)Nc2ccccn2)cc1	-0.59
O=C(Nc1ccc(I)cc1)c1nsc(Cl)c1Cl	1.9
Cc1c(NC(=O)c2cccc(I)c2)c(=O)n(-c2ccccc2)n1C	0.6
CCCCN1C(=O)C(O)(CC(=O)c2ccccc2O)c2cc(Br)ccc21 (stereo unspecified)	-0.09
Cc1ccc(N(C(=O)c2cccc([N+](=O)[O-])c2)c2ccc3ccccc3c2)cc1	-1.4
Cc1oc2cc(Br)c(OCC(=O)OC(C)(C)C)cc2c1C(=O)OC(C)C	-0.44
COc1ccc(S(=O)(=O)N2CCN(CCC(=O)Nc3cccc(C(F)(F)F)c3)CC2)cc1	-1.1
COc1ccc(NC(=O)CC2SCCNC2=O)cc1 (stereo unspecified)	0.41
O=C(Nc1ccc(Br)cc1)c1cc(S(=O)(=O)NCc2ccccc2)ccc1F	-1.9
COc1cccc(C(C)NC(=O)c2cc(C)on2)c1 (stereo unspecified)	-0.78
Oc1cccc2ccc(C=Cc3ccccc3Cl)nc12	1.1

3 compounds already listed, sorted by the value under Measles inh, low to high:
SMILES	Measles inh
O=C(Nc1ccc(Br)cc1)c1cc(S(=O)(=O)NCc2ccccc2)ccc1F	-1.9
COc1ccc(-c2noc(COc3cc(C)cc(C)c3C)n2)cc1	-1.8
CCCCN1C(=O)C(O)(CC(=O)c2ccccc2O)c2cc(Br)ccc21 (stereo unspecified)	-0.09

Carrying on:
SMILES	Measles inh
COC(=O)c1sc(=S)n(-c2cccc(Cl)c2C)c1N	-0.6
Cc1cc(C)cc(C(=O)Nc2c3c(nn2-c2cccc(Cl)c2)CSC3)c1	-1.1
O=C(Nc1nccs1)c1ccccc1Cl	0.47
CCOc1cc(C2C3=C(CCCC3=O)N(C)C3=C2C(=O)CCC3)cc(Br)c1O	1
CN(c1ccccc1)C(C(=O)NC1CCCCC1)c1cc2c(cc1[N+](=O)[O-])OCO2 (stereo unspecified)	0.02
Cc1ccc(-c2nn(CC(N)=O)c(=O)c3ccccc23)cc1	-1.3
COc1ccccc1CC(=O)Nc1cc(Cl)ccc1OC	-1.4
CC(=O)c1ccc(NC(=O)C2C3C=CC(C3)C2C(=O)O)cc1 (stereo unspecified)	-0.96
O=C1Nc2ccc(Br)cc2C1O (stereo unspecified)	-0.25
Cc1cccn2c(=O)c(C=NCc3ccco3)c(Nc3ccc(Cl)cc3)nc12	0.92
CCSCCOC(=O)C1=C(C)NC2=C(C(=O)CC(c3ccc(Cl)cc3)C2)C1c1ccc([N+](=O)[O-])cc1 (stereo unspecified)	-1.8
CCOc1ccc(S(=O)(=O)N2CCc3ccccc3C2)c2ccccc12	0.17
O=[N+]([O-])c1cc(S(=O)(=O)Nc2cc3c4c(oc3c3ccccc23)CCCC4)ccc1Cl	-0.49
CC(CS(=O)(=O)c1ccc(N)cc1)N1CCOCC1 (stereo unspecified)	0.42
COc1ccc(C(=O)COc2ccc(N3C(=O)C4CCCCC4C3=O)cc2)cc1 (stereo unspecified)	-1.2
CC(=O)Cc1nsc(Nc2ccc(F)cc2)n1	2
CC1CC(C)CN(CCCNC(=O)C2CCCN(S(C)(=O)=O)C2)C1 (stereo unspecified)	0.14
COc1cc(C=Cc2c([N+](=O)[O-])c(=O)n(C)c(=O)n2C)cc(OC)c1OC	-0.68
Cc1cc(NC(=O)Cc2cccs2)no1	1
Cc1ccc(C(=O)NC(C)c2ccccc2)cc1[N+](=O)[O-] (stereo unspecified)	-0.56
CC(C)c1ccccc1NC(=O)c1cc2ccccc2oc1=O	-0.68
NC1=NC(=O)C(CC(=O)Nc2ccccc2Br)S1 (stereo unspecified)	1
Cc1cc(N2CCN(C)CC2)nc2ccc(NC(=O)CCC(=O)NCc3cccs3)cc12	1.1

Shown comma-delimited: 7 of the compounds above.
smiles,Measles inh
CN(c1ccccc1)C(C(=O)NC1CCCCC1)c1cc2c(cc1[N+](=O)[O-])OCO2 (stereo unspecified),0.02
Cc1ccc(-c2nn(CC(N)=O)c(=O)c3ccccc23)cc1,-1.3
COc1ccccc1CC(=O)Nc1cc(Cl)ccc1OC,-1.4
CC(=O)c1ccc(NC(=O)C2C3C=CC(C3)C2C(=O)O)cc1 (stereo unspecified),-0.96
O=C1Nc2ccc(Br)cc2C1O (stereo unspecified),-0.25
Cc1cccn2c(=O)c(C=NCc3ccco3)c(Nc3ccc(Cl)cc3)nc12,0.92
CCSCCOC(=O)C1=C(C)NC2=C(C(=O)CC(c3ccc(Cl)cc3)C2)C1c1ccc([N+](=O)[O-])cc1 (stereo unspecified),-1.8

Not all compounds are listed; count on the stated rates, not on these rows.
